Sa growth inh – S. aureus growth inhibition at 42 and 30 °C, primary screen, LtaS inhibitor project, RN4220, two temperatures; OD600, 20 h, 42 °C; stronger effect = lower value; relative growth, % (concentration not given with the values); hit rate 0.53% among 170,000; AID 720641, 2013;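 active means growth at 42 °C up to 50% and 20 or more points under that at 30 °C, or under 10% at both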;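 further: 300 nL library stock went into each well; scaled to the means of positive and negative controls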
GIV-Gai inh – inhibitors of GIV peptide binding to Galpha-i3, primary screen, biochemical, fluorescence polarization, FITC-GIV GBA peptide, rat Galphai3 | Guanine nucleotide-binding protein G(i) subunit alpha-3 (Rattus norvegicus), P08753 | AID 1224905, 2016 | percent of control (FP), % (concentration not given with the values) | 90 min; stronger effect = lower value; scaled: aluminum fluoride 0%, vehicle 100% | hit rate 0.42% among 210,000;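 active means replicate mean at 85% of control or lower, very high polarization wells dropped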;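 further: wells of about 15 µL received 100 nL stock; the first replicate is given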
Target sequence (P08753 whole entry, looked up): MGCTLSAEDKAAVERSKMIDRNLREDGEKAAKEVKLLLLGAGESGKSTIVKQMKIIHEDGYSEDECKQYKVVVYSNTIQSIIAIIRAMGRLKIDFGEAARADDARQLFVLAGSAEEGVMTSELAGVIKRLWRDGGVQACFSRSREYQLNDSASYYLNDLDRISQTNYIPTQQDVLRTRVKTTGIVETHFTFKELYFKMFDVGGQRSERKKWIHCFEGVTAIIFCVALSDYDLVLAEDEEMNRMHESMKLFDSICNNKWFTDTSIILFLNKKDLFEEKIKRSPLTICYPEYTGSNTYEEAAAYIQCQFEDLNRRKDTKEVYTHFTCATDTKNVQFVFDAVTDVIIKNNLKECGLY
HCMV UL50-53 inh – inhibitors of HCMV UL50-UL53 interaction, biochemical, HTRF; HCMV UL50-UL53 nuclear egress complex (human cytomegalovirus); normalized percent inhibition; inhibition, % (no concentration beside the values); hit rate 0.15% among 190,000; AID 1918969, 2023;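 active means both replicates at 50% or more, plus weaker picks with an unusually low signal ratio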;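 further: stock transfer was 100 nL into about 20 µL; 0% = negative control wells and 100% = wells with untagged competitor protein; inactives centre near -12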
Sa growth inh second temp – second read-out of Sa growth inh, no call of its own (marks repeat the call); relative growth, %; measured here: growth at 30 °C;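 optical density after 20 h as mean of two plates; 100% = untreated growth and lower means inhibition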
* = called active by the depositor; x = no result given.

SMILES	Sa growth inh	Sa growth inh second temp	GIV-Gai inh	HCMV UL50-53 inh
COC(=O)Cc1c(C)c2ccc3c(c2oc1=O)CN(Cc1ccccc1OC)CO3	100	98	97	-12
COc1ccc(OC)c(-n2c(=S)[nH]c3cc(C(=O)N4CCC(C(N)=O)CC4)ccc3c2=O)c1	130	79	100	x
COc1cc(OC)cc(C(=O)OCc2c(C)noc2C)c1	88	85	x	-4
N#C/C(=C\C=C\c1ccccc1)c1cccc(Cl)c1	73	89	102	-12
Cc1[nH]nc(N=CC2=C(O)CCCC2=O)c1-c1ccccc1	85	82	102	-20
CC(NC(=O)c1ccc2c(c1)N(Cc1ccc(Cl)cc1)C(=O)CS2)c1ccccc1 (configuration not stated)	100	95	100	-3
CCCCn1c(=O)c(CCC(=O)OCc2nnc(-c3cc4c(s3)CCCC4)o2)nc2ccccc21	91	94	x	-17
Cc1nnc(NC(=O)c2cccc(S(=O)(=O)N3CC(c4ccccc4)CC3=O)c2)s1 (configuration not stated)	101	89	103	-1
CC(C)COC(=O)Oc1ccc(Br)cc1	118	121	108	9
CCc1ccc(-c2nc(N)sc2CC(=O)O)cc1	111	91	x	-9
O=C(Nc1ccc(F)c(F)c1)c1cc2ccccn2n1	x	x	99	-32
O=C(CCN1C(=O)c2ccccc2C1=O)OCc1ccco1	74	61	x	-69
CC(O)CNc1nc2ccccc2n1Cc1ccc(C#N)cc1 (configuration not stated)	119	91	x	-2
O=C(O)c1ccc(CNCc2ccc(Cl)cc2)s1	100	89	102	-18
CS(=O)(=O)c1ccc(C(=O)OCc2ccccc2F)cc1	101	92	x	10
O=C(OCC(=O)N1N=C(c2ccc(Cl)cc2)CC1c1ccco1)c1ccccc1 (configuration not stated)	91	97	x	-12
CC1CCCCN1CCCNC(=O)Cn1ncc2ccc(Cl)cc21 (configuration not stated)	88	88	103	x
COC(=O)c1c(NC(=O)c2ccccc2)sc2c1CCC2	88	98	x	-11
Fc1cccc(-n2ncc3c2ncn2nc(Cc4ccccc4)nc32)c1	87	88	102	-5
CC(C)Oc1ccc(C(CC(N)=O)CC(=O)O)cc1 (configuration not stated)	95	96	x	6
CC1CCCN(c2nc3ncnc(SCC(=O)NC4CCCCC4)c3s2)C1 (configuration not stated)	x	x	103	0
O=C(O)c1cccc2c1NC(c1ccccc1F)C1CC=CC21 (configuration not stated)	x	x	93	30
N#CC(=Nc1ccccc1)C1=C(O)c2ccccc2C1=O	110	103	95	4
Cc1c(C)n(-c2ccccc2)c2ncn(CCC(=O)N3CCOCC3)c(=O)c12	x	x	103	-25
CC(C)(C)C(=O)Cn1nnc(N2CCOCC2)n1	96	85	104	-37
COc1ccc(S(=O)(=O)Nc2noc3ccccc23)cc1	x	x	96	-4
Cc1ccc(Cl)cc1N1CCN(CC(=O)c2ccc3[nH]ccc3c2)CC1	71	20	107	1
COc1ccc(S(=O)(=O)N2CCNCC2)cc1OC	100	99	103	x
CC(CSc1nnnn1-c1ccccc1)Cn1c(Br)nc2c1c(=O)[nH]c(=O)n2C (configuration not stated)	105	93	109	25
O=S(=O)(c1ccc(-n2cccn2)cc1)N1CCCc2ccccc21	95	96	102	48
Cc1cc2oc3c(c(=O)c2cc1C)C(c1ccc(C(C)C)cc1)N(c1nc(C)c(C)s1)C3=O (configuration not stated)	89	88	104	-1
CC(=O)C1=C(c2ccc(C)c(C)c2)N(C(C)=O)n2c(nnc2-c2ccc(Cl)cc2)S1	105	98	102	x
O=C(Nc1ccc(OCc2cc(=O)n3[nH]cnc3n2)cc1)c1ccccc1Cl	x	x	105	1
CCOC(=O)C1CCCN(Cc2ccc3ccccc3c2)C1 (configuration not stated)	113	100	104	-11
COc1cccc(-c2nnn(Cc3nc4ccc(Cl)cc4n3CCO)n2)c1	146	81	x	-18
O=C(NCCCN1CCOCC1)c1ccc2c(c1)N(CC(=O)N1CCCC1)C(=O)CO2	x	x	102	-21
Cc1ccc(S(=O)(=O)c2nc(-c3ccco3)oc2SCC(=O)Nc2ccc(F)cc2)cc1	84	85	102	2
c1ccc(-c2nc3cc(Cc4ccc5oc(-c6ccccn6)nc5c4)ccc3o2)nc1	85	74	106	4
CCn1c(C(=O)N2CCC(C(=O)NCCc3ccc(Cl)cc3)CC2)cc2occc21	x	x	102	-17
COCc1c(C(=O)Nc2ccc(OC)cc2OC)oc2ccccc12	92	97	x	-3
CCc1ccc2nc(N3CCN(C(=O)c4ccccc4)CC3)sc2c1	112	89	101	x
CC(Sc1nnc(-c2cccs2)n1-c1ccccc1)C(=O)NC1(C#N)CCCCC1 (configuration not stated)	114	109	x	-7
O=C(Cn1c(=O)oc2cc(S(=O)(=O)N3CCCCCC3)ccc21)NCc1ccccc1Cl	112	84	98	x
O=C(c1ccccc1Br)N1CCC(c2nc(-c3ccccc3)no2)CC1	x	x	100	-3
CCCC(=O)N1CC(C)C(=O)Nc2ccccc21 (configuration not stated)	x	x	102	4
CCOc1ccc2nc(N3CCCC(C(=O)Nc4c(C)cccc4C)C3)sc2c1 (configuration not stated)	112	96	102	-24
CCCNC(=O)c1noc2c1CCc1cc(OC)ccc1-2	88	81	100	-40
CC(C)CNS(=O)(=O)c1ccccc1	98	80	104	1
Cc1ccccc1C(=O)Nc1scc(CC(C)C)c1C(=O)O	80	33	x	-25
O=C(NCc1ccc2c(c1)OCO2)c1ccc(S(=O)(=O)N2CCCC2)cc1	108	98	103	-8
O=C(C1CCC1)N1CCc2cc(S(=O)(=O)NCCCN3CCN(Cc4ccccc4)CC3)ccc21	86	83	99	-18
C/C(=N\OCc1nc2c3c4c(sc3ncn2n1)CCCC4)c1cccs1	91	79	107	-22
Cc1cc(C)c(NC(=O)Nc2ccc3c(c2)N(C)C(=O)CS3)c(C)c1	x	x	106	-24
N#Cc1cccnc1NNC(=O)c1ccccc1C(=O)O	99	97	106	-2
O=c1[nH]nc(SCc2cccc3nsnc23)n1-c1ccccc1	100	99	100	-83
COc1ccc(CCNC2CC(=O)N(C)C2=O)cc1OC (configuration not stated)	109	93	109	-22
Cc1[nH]c2ccccc2c1C(=O)COc1ncnc2ccccc12	101	85	x	-10
C=CCn1c(=O)c(C(=O)Nc2cccc(O)c2)c(O)c2ccccc21	79	76	102	x
COc1cc(C2C(C(=O)Nc3ccccc3)=C(C)Nc3nc(SCC(=O)c4ccc(C)cc4)nn32)ccc1O (configuration not stated)	114	95	96	x
COc1cc(C(CC(=O)O)CC(=O)N2CCC(n3cccc3)CC2)cc(OC)c1OC (configuration not stated)	108	92	107	-5

(listing goes on)
SMILES	Sa growth inh	Sa growth inh second temp	GIV-Gai inh	HCMV UL50-53 inh
CC(OC(=O)C1=NNC(=O)CC1)C(=O)Nc1nc(-c2ccccc2)cs1 (configuration not stated)	88	89	x	-22
O=C(Cn1nnc(-c2ccccc2)n1)OCc1ccccc1	101	87	x	-5
Cc1csc(NC(=O)C2CCCN2S(=O)(=O)c2cccc3nsnc23)n1 (configuration not stated)	x	x	99	-131
COc1ccc2c(c1)C(SCC(=O)NC1CC1)CC(C)(C)O2 (configuration not stated)	103	97	105	0
CC(C)OCCCNC(=O)CCc1nnc2n(C)c(=O)c3sccc3n12	x	x	98	-4
Cc1cc(N2CCc3ccccc32)n2ncnc2n1	116	85	107	0
O=S1(=O)CCC(S(=O)(=O)N2CCN(Cc3ccc4c(c3)OCO4)CC2)C1 (configuration not stated)	x	x	102	12
CC1CCN(CC(=O)Nc2sc3c(c2C#N)CCCC3)CC1	102	88	103	-11
OCCN1CCN(C(=S)c2ccccc2O)CC1	98	97	103	-3
O=C(O)C1CCN(c2c(-c3ccccc3)c3cc(Cl)ccc3[nH]c2=O)CC1	68	78	97	-30
CC1=CCC2C(=O)N(c3ccc(C(=O)N4CCCCCC4)cc3)C(=O)C2C1 (configuration not stated)	95	91	105	-9
O=C(NCCc1cn2ccccc2n1)c1ccccc1F	92	84	107	-47

Gathered by group, those above containing a furan ring, fused or not
SMILES	Sa growth inh	Sa growth inh second temp	GIV-Gai inh	HCMV UL50-53 inh
O=C(CCN1C(=O)c2ccccc2C1=O)OCc1ccco1	74	61	x	-69
O=C(OCC(=O)N1N=C(c2ccc(Cl)cc2)CC1c1ccco1)c1ccccc1 (configuration not stated)	91	97	x	-12
Cc1ccc(S(=O)(=O)c2nc(-c3ccco3)oc2SCC(=O)Nc2ccc(F)cc2)cc1	84	85	102	2
CCn1c(C(=O)N2CCC(C(=O)NCCc3ccc(Cl)cc3)CC2)cc2occc21	x	x	102	-17
COCc1c(C(=O)Nc2ccc(OC)cc2OC)oc2ccccc12	92	97	x	-3

Going on with the list:
SMILES	Sa growth inh	Sa growth inh second temp	GIV-Gai inh	HCMV UL50-53 inh
S=C1NCN(Cc2ccccc2)CN1Cc1ccccc1	119	88	104	x
CCCCCSc1nnc2c(n1)OC(CC)N(C(C)=O)c1ccccc1-2 (configuration not stated)	112	94	107	-56
O=C(CSc1ccc2c(c1)CCC2)N(Cc1nnc(-c2ccc(Cl)cc2)o1)C1CC1	100	92	x	-16
COc1cccc(C2C(C(=O)Nc3ccccc3)=C(C)Nc3c(C(=O)Nc4ccccc4)cnn32)c1OC (configuration not stated)	x	x	97	2
CC(C(=O)O)C1SC(=O)NC1=O (configuration not stated)	94	85	101	-11
CSc1nc2ccc(NC(=O)/C=C/c3ccc(C)o3)cc2s1	68	86	x	6
CC1CCCCN1CCNC(=O)CN1C(=O)CCSc2ccccc21 (configuration not stated)	90	86	103	-24
CC(C)(C)c1ccc(C(=O)COc2ccc(-c3nnco3)cc2)cc1	88	87	x	7
CC1(CC(=O)N/N=C/c2ccc(C#N)cc2)OCCO1	103	97	109	-45
COc1cccc(NC(=O)C(NCCO)c2ccccc2)c1 (configuration not stated)	102	105	x	13
CN(C)c1ccc(C(CNS(C)(=O)=O)N2CCN(c3ccccc3)CC2)cc1 (configuration not stated)	x	x	98	-24
COc1ccc(NC(=O)CCc2c(C)nn(-c3cc(N4CCCC4)ncn3)c2C)cc1OC	x	x	101	-25

Some of these compounds in order of their number in Sa growth inh second temp, falling.
Compound,Sa growth inh second temp,GIV-Gai inh
CC1(CC(=O)N/N=C/c2ccc(C#N)cc2)OCCO1,97,109
S=C1NCN(Cc2ccccc2)CN1Cc1ccccc1,88,104
CC(C)(C)c1ccc(C(=O)COc2ccc(-c3nnco3)cc2)cc1,87,x
CC1CCCCN1CCNC(=O)CN1C(=O)CCSc2ccccc21 (configuration not stated),86,103

Continued:
SMILES	Sa growth inh	Sa growth inh second temp	GIV-Gai inh	HCMV UL50-53 inh
CCn1nc(C)c2c1c(=O)n(Cc1ccccc1)c(=O)n2Cc1ccc(C)cc1	x	x	99	0
CN(C)N1C(N)=C(C#N)C(c2ccccc2)C2=C1CCCC2=O (configuration not stated)	98	88	103	x
CCc1ccccc1NC(=O)c1cnc(N2CCCCC2)c2ccccc12	107	91	105	x
CCc1ccc2oc(C(=O)NCCc3ccc(OC)c(OC)c3)cc(=O)c2c1	99	71	103	-32
Cc1ccn(CC(C)C(=O)O)n1 (configuration not stated)	109	92	103	-3
O=C(Nc1ccc(F)c(Cl)c1)C1Cc2ccccc2CN1S(=O)(=O)c1ccc(F)cc1 (configuration not stated)	106	91	103	-5
CCCCC(=O)Nc1nc(-c2ccccc2)cs1	99	100	101	-19
Brc1ccc2nc3c(n2c1)CCCC3	155	74	107	-19
Clc1ccc(C(Nc2ccc(Br)cc2)c2nnc(-c3ccccc3)o2)cc1 (configuration not stated)	x	x	99	-15
Cc1ccc(C(=O)OCC(=O)N2CCCC2)cc1NC(=O)c1ccco1	94	91	x	4
COc1ccc(S(=O)(=O)NC2(C(=O)O)CCCCC2)cc1	106	100	106	-8
CC/C(C)=N/N1C(=O)c2ccccc2NC1(C)CC (configuration not stated)	100	105	105	3
CCc1ccc2oc(C(=O)NCC(c3ccc(Cl)cc3)N3CCOCC3)c(C)c2c1 (configuration not stated)	97	83	103	-33
CCOc1ccccc1C(=O)Nc1cccc(C)c1	91	75	108	x
COc1ccc(Nc2cnnc3c(Cl)cccc23)cc1OC	103	76	106	-130
CN(c1nnc(N)s1)C1CCCCC1	80	84	96	-12
Cn1c(N)c(Br)c(-c2ccc(F)cc2)c(C#N)c1=O	101	105	x	-9
CC1(C)CC2=NN(c3ccccc3)P(=O)(OCC3CCCO3)C2=C(N2CCCCC2)C1 (configuration not stated)	103	95	x	-7
CS(=O)(=O)c1ccccc1C(=O)Nc1cc2c(cc1C(=O)O)OCCO2	84	96	x	-22
O=C(Nc1nccs1)c1cccc(S(=O)(=O)N2CCCCC2)c1	93	77	107	x
Cc1csc(NC(=O)c2cc[n+]([O-])cc2)n1	83	90	x	-57

One compound at a time, as listed above.
CN(c1nnc(N)s1)C1CCCCC1 is listed as Sa growth inh: 80; Sa growth inh second temp: 84; GIV-Gai inh: 96; HCMV UL50-53 inh: -12
CCc1ccc2oc(C(=O)NCC(c3ccc(Cl)cc3)N3CCOCC3)c(C)c2c1 (configuration not stated) is listed as Sa growth inh: 97; Sa growth inh second temp: 83; GIV-Gai inh: 103; HCMV UL50-53 inh: -33
Cc1csc(NC(=O)c2cc[n+]([O-])cc2)n1 is listed as Sa growth inh: 83; Sa growth inh second temp: 90; GIV-Gai inh: x; HCMV UL50-53 inh: -57
